# Source: PubChem BioAssay (ICCB-Longwood Screening Facility, Harvard Medical School)
# HCMV UL50-53 inh – cytomegalovirus nuclear egress complex inhibition; inhibition, % (test concentration not listed); AID 1918969; 190,000 compounds, 0.15% hits; HTRF UL50-UL53 interaction, normalized percent inhibition;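 active = both replicates at 50% or more, plus weaker picks with an unusually low signal ratio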;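 also: stock transfer was 100 nL into about 20 µL; 0% = negative control wells and 100% = wells with untagged competitor protein; inactives centre near -12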
# Sa growth 42C – blocks Staphylococcus aureus growth. relative growth, % (concentration not given with the values). 170,000 compounds, 0.53% hits. S. aureus RN4220 growth, OD600, 20 h, 42 °C; hits give low values;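 active = growth at 42 °C up to 50% and 20 or more points under that at 30 °C, or under 10% at both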;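 also: 300 nL library stock went into each well; scaled to the means of positive and negative controls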
# GIV Gai3 FP – blocks GIV peptide binding to rat Galpha-i3. P08753. Galpha-i3/FITC-GIV peptide fluorescence polarization, 90 min; hits give low values; scaled: aluminum fluoride 0%, vehicle 100%. percent of control (FP), % (no concentration beside the values). 210,000 compounds, 0.42% hits;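 active = replicate mean at 85% of control or lower, very high polarization wells dropped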;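 also: wells of about 15 µL received 100 nL stock; the first replicate is given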
# Target sequence (P08753 whole entry, looked up): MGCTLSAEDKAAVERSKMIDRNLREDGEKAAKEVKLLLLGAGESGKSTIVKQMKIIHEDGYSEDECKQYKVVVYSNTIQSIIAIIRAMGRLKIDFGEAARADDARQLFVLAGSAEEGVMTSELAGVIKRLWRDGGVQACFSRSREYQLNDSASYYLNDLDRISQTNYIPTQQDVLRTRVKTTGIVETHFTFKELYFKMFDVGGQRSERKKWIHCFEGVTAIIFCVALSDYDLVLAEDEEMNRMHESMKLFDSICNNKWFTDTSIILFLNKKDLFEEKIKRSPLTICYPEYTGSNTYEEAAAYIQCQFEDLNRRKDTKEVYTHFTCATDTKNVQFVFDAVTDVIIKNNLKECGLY
# Sa growth 42C second temp – recorded beside Sa growth 42C, whose call it bears; relative growth, %; measured here: growth at 30 °C;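 optical density after 20 h as mean of two plates; 100% = untreated growth and lower means inhibition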
# Numbers without * were called inactive; x = no result given.
1) CC(NC(=O)CCCc1cccs1)c1ccc(S(N)(=O)=O)cc1 (configuration not stated)
2) COc1ccc(OC)c(NC(=O)CSC2=Nc3ccccc3C3=NC(CCC(=O)NCc4ccccc4)C(=O)N23)c1 (configuration not stated)
3) c1csc(CNc2ccc(-c3nc4ncccc4o3)cc2)c1
4) O=C1CCC(=O)N1CN1CCOCC1
5) CCn1c(C(=O)N2CCC(C(=O)N3CCN(c4cccc(C)c4C)CC3)CC2)cc2sccc21
6) Cc1ccc(CCNC(=O)CSCc2nc(-c3ccc(C)cc3)oc2C)cc1
7) CC(C=C1C(=O)NC(=O)NC1=O)c1ccccc1 (configuration not stated)
8) CCc1ccccc1NC(=O)CCNS(=O)(=O)c1ccc2[nH]c(=O)ccc2c1

Assay by compound,1,2,3,4,5,6,7,8
HCMV UL50-53 inh,-6,x,x,-34,-5,-2,62*,x
Sa growth 42C,97,93,105,105,82,98,80,101
Sa growth 42C second temp,88,85,88,97,53,84,88,91
GIV Gai3 FP,x,102,99,108,101,109,113,100

9) O=S1(=O)N=CNc2ccc(S(=O)(=O)Nc3ccccc3Cl)cc21
10) Cc1cccc(-c2csc(-c3nc(-c4ccc(OC(C)C)cc4)no3)c2-n2cccc2)c1
11) CCOC(=O)C1CCC(CN(Cc2ccc(Cl)cc2)S(=O)(=O)c2cc(Cl)cc(Cl)c2)CC1 (configuration not stated)
12) Oc1ccc(/C=N/n2cnn(Cc3ccccc3Cl)c2=S)c(O)c1
13) CCCN(CCC)Cc1c(C(=O)O)nnn1-c1nonc1N
14) CCOc1cc(CNCc2cccnc2)cc(Cl)c1OCc1cccs1
15) Cc1c(C(=O)O)cc(-c2ccccc2)n1CCSCc1c(F)cccc1Cl
16) CCCCCC(=O)Nc1ccc(Cc2ccncc2)cc1

Assay by compound,9,10,11,12,13,14,15,16
HCMV UL50-53 inh,0,-20,x,-34,x,-5,-19,-15
Sa growth 42C,x,x,128,87,108,82,95,115
Sa growth 42C second temp,x,x,84,46,88,66,80,78
GIV Gai3 FP,104,102,100,x,93,101,107,100

17) CN(C)c1ccc(CNC(=O)C2CCCN(S(=O)(=O)c3ccc4c(c3)CCCC(=O)N4)C2)cc1 (configuration not stated)
18) CC(=O)N1CC(=O)c2ccccc21
19) O=C(CSc1nnc(CNC(=O)c2ccccc2)n1-c1ccc(F)cc1)Nc1ccccc1F
20) CN(C)S(=O)(=O)c1ccc2c(c1)c(=O)c(C(=O)N1CCN(c3ccccc3)CC1)cn2C
21) COc1ccc(C(=O)c2oc3ccccc3c2NC(=O)c2nc(SC)ncc2Cl)cc1Cl
22) O=C(c1csc2c1CCCC2)N1CCOCC1
23) N#C/C(=C(/O)Cn1nc(C(=O)O)c2ccccc2c1=O)c1nc2ccccc2[nH]1
24) Cc1cc(C)c(C(=O)N2CCCCC2C)c(C)c1 (configuration not stated)

Assay by compound,17,18,19,20,21,22,23,24
HCMV UL50-53 inh,x,-20,4,-29,-13,-18,-14,-30
Sa growth 42C,113,84,93,106,109,99,89,117
Sa growth 42C second temp,89,84,96,87,88,90,86,101
GIV Gai3 FP,113,109,100,105,102,x,x,105

25) CCOc1ccc(-c2nnc(SCC(=O)NC3CCCCC3)nc2-c2ccc(OCC)c(OC)c2)cc1OC
26) CC1(C)CC(=O)c2c(SCC(=O)NN)sc(C#N)c2C1
27) Cc1ccc(NC(=O)c2ccc(CNS(=O)(=O)c3ccc4c(c3)C(C)(C)C(=O)N4C)cc2)cc1C
28) Cc1cc(C)n(-c2ccc3nncn3n2)n1
29) CCC(C(=O)Nc1ccc(S(N)(=O)=O)cc1)c1ccccc1 (configuration not stated)
30) CCOc1ccc(C(=O)c2oc3ccccc3c2NC(=O)c2cc(-c3ccc(Cl)cc3)on2)cc1
31) Cc1cccc(-c2nc(SCCCOc3cc(C)c(Cl)c(C)c3)n3[nH]c(=O)cc3n2)c1
32) c1ccc(C2CCCN(c3ncnc4nc[nH]c34)C2)cc1 (configuration not stated)

Assay by compound,25,26,27,28,29,30,31,32
HCMV UL50-53 inh,x,-61,x,-21,-14,-9,x,-18
Sa growth 42C,92,81,127,91,94,99,86,90
Sa growth 42C second temp,92,80,91,93,79,92,90,75
GIV Gai3 FP,103,99,103,x,x,102,102,99

33) CCC(=O)N=c1sc2ccccc2n1C
34) CCOC(=O)c1ccc(NC(=O)c2ccc(C)cc2)cc1
35) O=C(Nc1nc2ccc3ccccc3c2o1)c1cccs1
36) Clc1ccccc1/C=C/C=Nc1ccc(N2CCOCC2)cc1
37) CCc1nc(-c2cc(S(=O)(=O)N3CCCC(C(=O)NC4CCC(C)CC4)C3)c(C)s2)no1 (configuration not stated)
38) CCCC(C)NC(=O)c1cnc2sc(C)c(C)n2c1=O (configuration not stated)
39) CCCC(=O)Nc1ccc(NC(=O)c2ccc3c(c2)OCO3)cc1
40) Cc1ccc(SCC(=O)NCCN2C(=O)CSC2=O)c(C)c1

Assay by compound,33,34,35,36,37,38,39,40
HCMV UL50-53 inh,-7,x,-37,x,-8,-20,7,-12
Sa growth 42C,128,92,x,111,x,x,95,96
Sa growth 42C second temp,103,87,x,83,x,x,106,94
GIV Gai3 FP,102,98,101,103,107,105,102,x

41) CCOC(=O)C1CCN(C(=O)COC(=O)c2ccc(C#N)cc2)CC1
42) COc1cccc(/C(O)=C/c2nc3ccc(C(=O)N4CCN(c5ccccn5)CC4)cc3[nH]c2=O)c1
43) O=C(CSCc1ccccc1)N1CCN(c2ncccn2)CC1
44) Cc1c(C(=O)CSc2ncccc2C(=O)O)sc2ccccc12
45) CCOC(=O)C1CCN(C(=O)C2=C(C)C(=O)OC23CCN(C(C)=O)CC3)CC1
46) Cc1ccc(CN2CC(C(=O)N3CCOCC3)CC2=O)cc1 (configuration not stated)
47) O=C(CSCc1ccccc1Cl)NCc1cccs1
48) CCc1ccc(NC(=O)c2cc(CN3CCOCC3)on2)cc1

Assay by compound,41,42,43,44,45,46,47,48
HCMV UL50-53 inh,-5,-44,7,-30,-9,-36,-12,x
Sa growth 42C,83,86,87,122,x,102,98,109
Sa growth 42C second temp,81,84,105,91,x,86,91,87
GIV Gai3 FP,x,55*,x,102,105,x,102,106

49) CC(C)c1ccccc1NC(=O)COC(=O)Cc1ccccc1F
50) O=C(/C=C/c1ccco1)NC(=S)Nc1ccccc1C(F)(F)F
51) CCOc1ccc(C(CC(=O)O)NC(=O)c2c(-c3ccccc3)noc2C)cc1 (configuration not stated)
52) O=S(=O)(Nc1nnc(C2CC2)s1)c1ccccc1
53) Cc1cc2c(cc1S(=O)(=O)CCC(=O)N1CCN(c3ccccc3)CC1)OCC(=O)N2
54) Cc1ccc(C(=O)OCC2OC(O)C(O)C2OC(=O)c2ccc(C)cc2)cc1 (configuration not stated)
55) CCOC(Cn1c(SCC(=O)NCCc2ccc(S(N)(=O)=O)cc2)nc2ccccc2c1=O)OCC
56) CCOC(=O)c1c(NC(=O)c2cccs2)sc(C(=O)Nc2ccccc2C(F)(F)F)c1C

Assay by compound,49,50,51,52,53,54,55,56
HCMV UL50-53 inh,-28,6,3,-2,x,-24,-40,-5
Sa growth 42C,118,91,109,106,95,109,94,x
Sa growth 42C second temp,83,47,97,90,84,52,84,x
GIV Gai3 FP,x,147,x,101,103,x,106,114

57) CCc1ccc(S(=O)(=O)c2cn(C)c3cc(F)c(F)cc3c2=O)cc1
58) CC(C)NC(=O)c1ccccc1NC(=O)CCS(=O)(=O)Cc1ccccc1
59) Cc1cc2c(cc1S(=O)(=O)N1CCCC(C(=O)NC3CCC(C)CC3)C1)OCC(=O)N2 (configuration not stated)
60) O=c1oc2c(ccc3ccccc32)c2c1SC(C(F)(F)F)C2 (configuration not stated)
61) CCc1ccccc1NC(=O)C1CC2C=CC1C2 (configuration not stated)
62) COc1cc(C(=O)N2CCNC(=O)C2CC(=O)Nc2ccc(C)c(C)c2)cc(OC)c1OC (configuration not stated)
63) COCCCNC(=O)CCCCn1c(=O)c2ccccc2n(CC(=O)Nc2ccc(C)cc2C)c1=O
64) COc1ccc(-c2nnc(SCC(=O)N[C@H](c3nc4ccccc4[nH]3)C(C)C)o2)cc1

Assay by compound,57,58,59,60,61,62,63,64
HCMV UL50-53 inh,-4,-20,6,-15,-6,-1,-2,-20
Sa growth 42C,82,100,x,94,92,87,94,94
Sa growth 42C second temp,98,103,x,89,93,89,98,91
GIV Gai3 FP,110,103,102,100,x,106,98,x

# Eleven entries from above, with values under each structure:
# Each structure is followed by: HCMV UL50-53 inh | Sa growth 42C | Sa growth 42C second temp | GIV Gai3 FP
(54) Cc1ccc(C(=O)OCC2OC(O)C(O)C2OC(=O)c2ccc(C)cc2)cc1 (configuration not stated)
  -24 | 109 | 52 | x
(55) CCOC(Cn1c(SCC(=O)NCCc2ccc(S(N)(=O)=O)cc2)nc2ccccc2c1=O)OCC
  -40 | 94 | 84 | 106
(56) CCOC(=O)c1c(NC(=O)c2cccs2)sc(C(=O)Nc2ccccc2C(F)(F)F)c1C
  -5 | x | x | 114
(57) CCc1ccc(S(=O)(=O)c2cn(C)c3cc(F)c(F)cc3c2=O)cc1
  -4 | 82 | 98 | 110
(58) CC(C)NC(=O)c1ccccc1NC(=O)CCS(=O)(=O)Cc1ccccc1
  -20 | 100 | 103 | 103
(59) Cc1cc2c(cc1S(=O)(=O)N1CCCC(C(=O)NC3CCC(C)CC3)C1)OCC(=O)N2 (configuration not stated)
  6 | x | x | 102
(60) O=c1oc2c(ccc3ccccc32)c2c1SC(C(F)(F)F)C2 (configuration not stated)
  -15 | 94 | 89 | 100
(61) CCc1ccccc1NC(=O)C1CC2C=CC1C2 (configuration not stated)
  -6 | 92 | 93 | x
(62) COc1cc(C(=O)N2CCNC(=O)C2CC(=O)Nc2ccc(C)c(C)c2)cc(OC)c1OC (configuration not stated)
  -1 | 87 | 89 | 106
(63) COCCCNC(=O)CCCCn1c(=O)c2ccccc2n(CC(=O)Nc2ccc(C)cc2C)c1=O
  -2 | 94 | 98 | 98
(64) COc1ccc(-c2nnc(SCC(=O)N[C@H](c3nc4ccccc4[nH]3)C(C)C)o2)cc1
  -20 | 94 | 91 | x

# Continuation:
65) Cc1ccc(-c2cc(N)n[nH]2)cc1
66) CN(CCO)S(=O)(=O)c1ccc2c(c1)C(=NO)c1cc(S(=O)(=O)N(C)CCO)ccc1-2
67) CC1(C)CC(=O)c2cc(OCC(=O)NCCCN3CCN(c4ccccc4F)CC3)ccc2O1
68) Cc1[nH]nc(-c2ccc(O)c(C)c2O)c1Oc1ccccc1
69) O=C1OC/C(=C(\O)c2ccc(Cl)cc2)C1=O
70) Cc1cccc(NC(=O)CSC2=Nc3ccccc3C3=NC(CCC(=O)NCc4ccco4)C(=O)N23)c1 (configuration not stated)
71) Cc1nc(N2CCCC2)cc(N2CCN(C(=O)Nc3ccc4c(c3)OCCO4)CC2)n1
72) CCOc1ccc2c(O)csc2c1

Assay by compound,65,66,67,68,69,70,71,72
HCMV UL50-53 inh,x,x,1,-10,-88,-5,-28,-44
Sa growth 42C,95,113,109,89,73,98,x,109
Sa growth 42C second temp,89,89,97,56,80,68,x,81
GIV Gai3 FP,98,97,102,99,x,100,102,106

73) Cc1nc2sc(C(c3ccccc3)N3CCC(C)CC3)c(O)n2n1 (configuration not stated)
74) O=C(CCCC(=O)Nc1ccc(F)cc1F)Nc1ccc(F)cc1F
75) CCN1CCN(c2nc3ncn(CC(=O)Nc4ccc(Br)cc4)c(=O)c3s2)CC1
76) CC(=O)N1CCN(C(=O)Cc2csc3nc(-c4ccc(Cl)cc4)cn23)CC1
77) Cc1cc2c(cc1S(=O)(=O)N(CCN(C)C)Cc1ccco1)OCC(=O)N2
78) Cc1ccc(-c2noc(CNC(=O)C3CCC(=O)N3S(=O)(=O)c3ccc(C)cc3)n2)cc1 (configuration not stated)
79) Cc1ccc(-n2nc3c(N4CCCC(C(=O)NCc5ccc(Cl)cc5)C4)nnc(C)c3c2C)cc1 (configuration not stated)
80) CCN(CC)S(=O)(=O)c1ccc2c(c1)nnn2C1CCN(C(=O)NC(C)C)CC1

Assay by compound,73,74,75,76,77,78,79,80
HCMV UL50-53 inh,x,-12,5,-25,x,-6,x,-9
Sa growth 42C,79,109,x,111,97,x,93,x
Sa growth 42C second temp,88,82,x,84,83,x,93,x
GIV Gai3 FP,97,102,103,105,98,95,103,100

81) Cc1cc(N2CCCC2)nc2ccccc12
82) CCc1nc2sc3c(SCC(N)=O)ncnc3c2c2c1CCCC2
83) O=C(NCCN1CCOCC1)c1cn2ccccc2n1
84) CCOC(=O)c1c(C)sc2c(C)c(C)[nH]c12
85) Cc1ccc2c(c1)c1c(n2CCc2ccncc2)CCN(C)C1
86) CCCN(CCC)C(=O)C(C)Sc1nc2ccccc2c(=O)n1C (configuration not stated)

Assay by compound,81,82,83,84,85,86
HCMV UL50-53 inh,-20,-6,6,-21,-6,-2
Sa growth 42C,x,94,88,102,104,90
Sa growth 42C second temp,x,83,99,83,89,84
GIV Gai3 FP,103,101,x,x,x,108
